Screens as filed in PubChem.
Tgondii IFNg – inhibitors of Toxoplasma gondii growth with IFN-gamma. activity change, negative = inhibition, %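 (about 20 µM by stock and volumes)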. 3.8% of 69,000 active. Toxoplasma gondii growth in IFN-gamma-treated host cells; hits give low values; reference of the scale not given here;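 active = below -70%; inconclusive = fit judged invalid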;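 also: host cells are HeLa cells infected with Toxoplasma gondii; parasite growth read as luciferase light; one replicate is shown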
* = called active by the depositor; i = inactive; ? = inconclusive; ! = repeats disagree. These rows are one share of the data, so the mix of outcomes need not match the whole.

SMILES	Tgondii IFNg
COc1ccc(-c2nc(Cc3noc(Cc4cccc(OC)c4)n3)c(C)o2)cc1	5
CCOC(=O)C1c2ccccc2Oc2ccccc21	23
CN1C(=O)C2(NCCc3c2[nH]c2ccccc32)c2cc(Br)ccc21 (stereo unspecified)	i
O=S(=O)(c1ccccc1Cl)N1CCC2(CC1)Nc1cc(F)ccc1-n1cccc12	13
CN(C)Cc1cn(CC[C@H]2CC[C@H](NC(=O)Cc3cccnc3)[C@H](CO)O2)nn1	-17
Cc1nc2sccn2c(=O)c1CCN1CCC(=C(c2ccc(F)cc2)c2ccc(F)cc2)CC1	-77*!
CCN(Cc1cnn(C)c1)C(=O)c1cccc(NCc2ccc(C)cc2)c1	42
CO[C@@H]1CN(C)C(=O)c2cc(NC(=O)Nc3cccc(Cl)c3)ccc2OC[C@H](C)N(C(=O)Nc2c(C)noc2C)C[C@@H]1C	?
COc1ccc(S(=O)(=O)N(C)C[C@H]2Oc3ccc(NC(=O)Nc4ccc(C(F)(F)F)cc4)cc3C(=O)N([C@@H](C)CO)C[C@@H]2C)cc1	-66
CN(C)CCNC(=O)c1cc(-c2cnc(NCc3ccccc3)nc2)cn1C	-36
C/C=C/c1ccccc1[C@@H]1[C@H](C#N)N(C(=O)CN2CCOCC2)[C@H]1CO	-5
CCn1c(SCc2nc(-c3ccccc3C)oc2C)nc2c(=O)[nH]cnc21	-31
CS(=O)(=O)c1ccc(-c2ccc(CN3CCCC3)cc2)cc1	-4
O=C(Cc1cccs1)NCc1ccc(-c2ccc(F)cc2F)o1	121
CC(=O)c1sc(N/N=C2\CC3CC2C(C)C3(C)C)nc1C (stereo unspecified)	45
COc1ccc(C(=O)N(CC(=O)NC(C)(C)C)c2ccc3c(c2)OCCO3)cc1OC	45
Cc1nn(C)cc1-c1ccnc(N(C)Cc2cccc(CN(C)C)c2)n1	-2
CCC(C(=O)N1CCCC1)n1c2ccccc2c2cnn(C)c(=O)c21 (stereo unspecified)	-64
C=CC[C@@H]1CC=C[C@@H](CC=C)N1C(=O)c1cc2n(n1)CCCN(C(C)=O)C2	-1
CCn1ncc(S(=O)(=O)N2CCC3(CC2)CN(C)CCN3C)c1C	11
O=c1[nH]c(CSc2n[nH]c(-c3ccc(Cl)cc3Cl)n2)nc2ccccc12	34
CCCc1c(C(=O)OCC)[nH]c2c1C(=O)CCC2	-2
Cc1ccc(C)c(S(=O)(=O)N2CCC3(CC2)Nc2cc(F)ccc2-n2cccc23)c1	45
Cc1cc(-c2nnc(CCC(=O)NC3c4ccccc4-c4ccccc43)o2)c(C)o1	32
O=C(Nc1cnn(-c2ncncc2N2CCSCC2)c1)NC1CCCC1	-50
CCC(=O)Nc1ccc(OCC(=O)N[C@H]2CCCCNC2=O)cc1	9
CCCc1ncc(CN2CCCC(c3cc(=O)[nH]c(N4CCCCC4)n3)C2)cn1 (stereo unspecified)	43
CCOC(=O)CN1N=NC2C(=O)N(c3ccccc3)C(=O)C21 (stereo unspecified)	-1
COCC(=O)N1C[C@@H]2[C@H](c3ccccc31)[C@@H](CO)N2C(=O)c1ccccc1F	2
CSCCCN1CCN(Cc2cccc(F)c2)C(=O)C1	-43
CCCNC(=O)Nc1ccc2c(c1)OC[C@@H](C)N(Cc1cncnc1)C[C@H](C)[C@@H](OC)CN(C)C2=O	3
O=C(COC(=O)c1ccc(Cl)nc1)NC1CCCCC1	1
COCCN1CCC2(CCCN(Cc3ccnn3C)CC2)C1=O (stereo unspecified)	3
C/C=C/c1ccc([C@H]2[C@H]3CN(C(=O)Nc4cccc(OC)c4)CC(=O)N3[C@H]2CO)cc1	-9
Fc1cccc2c(OC3CCN(Cc4ccccc4)CC3)cc(C(F)(F)F)nc12	-94*
O=C(Nc1ccc(S(=O)(=O)c2ccc(NC(=O)C(F)(F)F)cc2)cc1)C(F)(F)F	-29
CC(C)C(=O)NC[C@@]12COC[C@@H]1CN(CCOCc1ccccc1)C2	-38
CCCC(=O)N1CCN(CCC)C(=O)C1Cc1cccc(-c2ccncc2)c1 (stereo unspecified)	-11
CCC(C(=O)N1CCC(C)(C(=O)NCc2cc(OC)cc(OC)c2)CC1)c1ccccc1 (stereo unspecified)	-10
CCCn1cnnc1CN(C)C(=O)c1ccoc1C	-11
CC(C)NC(=O)N(C)C[C@H]1Oc2c(NS(=O)(=O)c3cccs3)cccc2C(=O)N([C@@H](C)CO)C[C@@H]1C	8
Cn1c(=O)c(-c2nc(-c3ccccc3Cl)no2)c(O)c2cc(F)ccc21	-20
CCOC(=O)c1c(NC(=O)Cc2nn(C)c(=O)c3ccccc23)sc(C)c1C	-65
CCn1c(SC(C)C(=O)Nc2c(C)cccc2C)nnc1-c1ccccc1 (stereo unspecified)	17
CC(=O)N1CCCC(c2ncc3c(n2)CCN(C(=O)C2=NNC(=O)CC2)C3)C1 (stereo unspecified)	21
O=C(c1ccccc1)N1CCC(NCc2cnn(Cc3ccccc3)c2)CC1	-5
O=C(c1ccccn1)N1CCCC2(COCCN(c3cccnc3)C2)C1 (stereo unspecified)	-1
CCCc1nc(CN(CC)C(=O)c2csnn2)no1	4
Cc1nc(-c2cn(C(C)C)c3ncccc23)sc1C(=O)N1CCC2(CC1)OCCO2	-67
O=C(NCc1ccc(F)cc1)C1CCN(c2ncccn2)CC1	-8
(continued)
SMILES	Tgondii IFNg
CNC(=O)c1cnc2n1CCN(Cc1nccn1C)C2	72
COc1ccc(CNC(=S)Nc2ccccc2)cc1	54
CO[C@H](CN(C)Cc1ccc2c(c1)OCO2)[C@H](C)CN(C(=O)Nc1ccc(F)cc1)[C@@H](C)CO	18
Cc1n[nH]c(C)c1C(NC(=O)CSC(C)C)C(=O)O (stereo unspecified)	37
Cc1cc(C(=O)N2CCC3(C2)C(=O)N(C)CCN3CC#N)n[nH]1 (stereo unspecified)	0
O=C(NCCc1csc(-c2ccccc2)n1)[C@H]1CCCN1S(=O)(=O)c1cccc2nsnc12	-36
CSc1ccc(C(=O)N(Cc2ccccn2)CC(C)C)cc1	-59
OC1(C#Cc2ccccc2)c2ccccc2-c2ncccc21 (stereo unspecified)	1
Clc1ccc(Nc2nc(Nc3ccc(Cl)cc3)nc(Oc3ccccc3)n2)cc1	-100*
Cc1c(NCc2cccnc2)cccc1C(=O)NC(C(=O)N(C)C)c1ccccc1 (stereo unspecified)	0

The closing 2 compounds of the part above are carried over, then new ones follow.
SMILES	Tgondii IFNg
Clc1ccc(Nc2nc(Nc3ccc(Cl)cc3)nc(Oc3ccccc3)n2)cc1	-100*
Cc1c(NCc2cccnc2)cccc1C(=O)NC(C(=O)N(C)C)c1ccccc1 (stereo unspecified)	0
C=CCn1c(=O)c(C(=O)Nc2ccccc2C)c(O)c2ccccc21	56
COc1ccccc1OCc1cc(C(=O)N2CCC2c2ccccc2)n[nH]1 (stereo unspecified)	-12
Cc1c(C(=O)N2Cc3cnc(CC(C)C)nc3C2)cnn1-c1ccccn1	-2
Cc1ccc(CN2CCC(c3nc4ccc(N5CCOCC5)cn4n3)CC2)o1	-47
CCOc1ccc(NC(=O)Cn2ncc3c(N4CCN(c5ccccc5)CC4)ncnc32)cc1	63
CN1CCN(Cc2n[nH]c(=O)n2CC2CCCCC2)CC1	0
Cc1nc(CN2C[C@@H](c3ccccc3)[C@@]3(CCNC3=O)C2)cs1	-14
CCc1ccc2occ(CC(=O)NCc3cccnc3N(C)C)c2c1	-39
Fc1ccc(C2=CCN(c3nc(-c4ccncc4)nc4c3CNC4)CC2)cc1	6
COc1ccc(-c2cccc(-c3nnc(C)s3)c2)c(OC)c1	-82*
CN1[C@H](C(=O)O)C[C@H](C(=O)NC2CCOCC2)[C@@H]1c1cccc(Cl)c1	8
COc1ccc(N(C)c2ccc3ccc(C(=O)N4CCC(N(C)C)C4)cn23)cc1 (stereo unspecified)	-7
CCN1c2cc(Cl)ccc2C(=O)NC12CCN(C(=O)Nc1cc(C)ccc1OC)CC2	97
CCN(CC)C(=O)c1cc(=O)n(CC(=O)Nc2ccccc2)c2ccccc12	8
FC(F)(F)c1ccc(Sc2cccs2)nc1	-41
CN(Cc1cc2c(cc1Cl)OCO2)CC1CCCCO1 (stereo unspecified)	1
CN(C)C(=O)C[C@@H]1CC[C@@H]2[C@H](COC[C@H](O)CN2S(=O)(=O)c2ccccc2Cl)O1	-5
Cn1ccc2cc(S(=O)(=O)N3CCCC(C(=O)NCc4ccccn4)C3)ccc21 (stereo unspecified)	32
CC(=O)Nc1ccc(Nc2nc(-c3nnc(-c4ccc(C)cc4)o3)nc3ccccc23)cc1	457
CS(=O)(=O)NCc1ccc(C(=O)NCc2ccccc2)cc1	8
Cc1ccc(Sc2ccccc2N2CCNCC2)c(C)c1	-7
O=C(COc1ncnc2cc(Cl)ccc12)c1ccc(OC(F)(F)F)cc1	-45
O=S(=O)(c1cccs1)N1CCCCN2[C@H](CO)[C@H](c3ccc(/C=C/c4ccccc4)cc3)[C@H]2C1	-63
CC(=O)NC(Cc1c[nH]c2ccccc12)C(=O)OCc1cc(C(F)(F)F)cc(C(F)(F)F)c1 (stereo unspecified)	15
NC(CSSCC(N)C(=O)O)C(=O)O (stereo unspecified)	14
O=C(/C=C/c1ccccc1)NCC1=CCCN(C2C=CCCC2)C1 (stereo unspecified)	-1
COc1ccc(/C=C/C(=O)N2CCc3c(cnc(C)c3CNC(=O)CN3CCCCC3)C2)cc1	6
O=C(O)Cn1ccnc1-c1ccccc1	14
Cc1ccc(-c2nc(C)c(CCNC(=O)C(=O)Nc3c(C)cccc3C)s2)cc1	44
O=C(c1ccccc1)c1c(-c2ccccc2)csc1Nc1ccccc1	16
c1ccc(CN2CCCC3(COCCN(c4cccnc4)C3)C2)nc1 (stereo unspecified)	-31
Cn1ccnc1CN1C[C@H]2CN(C(=O)c3ccccc3)C[C@@H]2C1	-48
Cc1cccc(C(=O)NCCc2csc(-c3ccc(Cl)cc3)n2)c1	-46
CSc1ssc(=Nc2ccc(F)c(F)c2)c1-c1ccccc1	-71*
COc1ccc(CNC(=O)CC2Nc3c4ccccc4nc(=S)n3C2=O)cc1 (stereo unspecified)	-8
Cc1occc1C(=O)N1CCOC2(CCCN(c3cnccn3)C2)C1 (stereo unspecified)	3
CC1(C)CC(=O)c2sc(NC(=O)C(C)(C)C)nc2C1	135
Cc1cc(N)c2ccccc2[n+]1CCCCCCCCCC[n+]1c(C)cc(N)c2ccccc21	-14
CCc1cc2cc3c(cc2nc1Sc1nc2cc4c(cc2cc1CC)OCO4)OCO3	10
O=C1C=CC(=O)C2=C1C1c3ccccc3C2c2ccccc21	-14

Seven records drawn at random from the list so far:
SMILES	Tgondii IFNg
c1ccc(CN2CCCC3(COCCN(c4cccnc4)C3)C2)nc1 (stereo unspecified)	-31
COc1ccc(CNC(=O)CC2Nc3c4ccccc4nc(=S)n3C2=O)cc1 (stereo unspecified)	-8
Cc1cc(N)c2ccccc2[n+]1CCCCCCCCCC[n+]1c(C)cc(N)c2ccccc21	-14
Cn1ccnc1CN1C[C@H]2CN(C(=O)c3ccccc3)C[C@@H]2C1	-48
CSc1ssc(=Nc2ccc(F)c(F)c2)c1-c1ccccc1	-71*
Cc1cccc(C(=O)NCCc2csc(-c3ccc(Cl)cc3)n2)c1	-46
CCc1cc2cc3c(cc2nc1Sc1nc2cc4c(cc2cc1CC)OCO4)OCO3	10

Carrying on:
SMILES	Tgondii IFNg
NC1=NC(c2ccc(OCC(=O)O)cc2)n2c(nc3ccccc32)N1 (stereo unspecified)	-3
CN1C(=O)c2cc(NC(=O)NCc3ccccc3)ccc2OC[C@H]2O[C@H](CC(=O)NCC3CCCCC3)CC[C@@H]21	-20
CC(C)(C)c1cccc(C2(O)C(=O)c3ccccc3C2=O)c1O	44
CCOCc1nn(CC2CC2)c2c1CN(Cc1cccs1)CC2	9
CCCC(C(=O)N1CCN(c2nc(C)cnc2C)CC1)n1cccc1 (stereo unspecified)	-1
O=C(NC(=S)N1CCCCC1)c1cccnc1	7
Cn1cc(C[C@H]2[C@@H](O)CCN2C(=O)c2ccc3[nH]ccc3c2)cn1	-25
Cc1ccccc1CN(CCCn1ccnc1)Cc1n[nH]nc1-c1ccccc1	-45
COc1nc2c(cc1C(=O)N1CCC(O)(c3ccc(C)cn3)CC1)CCC2	-2
CCN1CCN(c2nc(-c3ccc(OC)cc3)nc3ccccc23)CC1	-48

A different layout for some results above.
canonical_smiles | Tgondii IFNg
C/C=C/c1ccccc1[C@@H]1[C@H](C#N)N(C(=O)CN2CCOCC2)[C@H]1CO | -5
CCn1c(SCc2nc(-c3ccccc3C)oc2C)nc2c(=O)[nH]cnc21 | -31
CS(=O)(=O)c1ccc(-c2ccc(CN3CCCC3)cc2)cc1 | -4
O=C(Cc1cccs1)NCc1ccc(-c2ccc(F)cc2F)o1 | 121

Next section
SMILES	Tgondii IFNg
Cc1cccc(COCC2CN(S(C)(=O)=O)Cc3ncn(C)c32)n1 (stereo unspecified)	-3
CCC1CN(C(=O)c2ccc(-c3ccc(OC)nc3)nc2)CCN1C(C)C (stereo unspecified)	-4
COCC(=O)Nc1ccc2c(c1)C(=O)N(C)C[C@H](OC)[C@@H](C)CN(CCc1ccccc1)[C@@H](C)CO2	242
CCS(=O)(=O)Nc1ccc(C(=O)N[C@@H](C)c2ncccc2C)cc1	3
COCCN1CCN(C(=O)N2CCOCC2)Cc2cccnc21	155
COc1ccc2c3c([nH]c2c1)[C@H](CO)N(C(=O)c1ccc(F)cc1)CC31CCN(S(=O)(=O)c2cccs2)CC1	-57
COCC(NC(=O)c1cc(NC(C)=O)ccc1Cl)c1ccccn1 (stereo unspecified)	6
CC1=C(C(=O)Nc2ccc(C)cc2)C2(CCN(S(C)(=O)=O)CC2)OC1=O	43
O=C(Nc1ncc(Cc2cccc3ccccc23)s1)c1ccc(Cl)cc1	-101*
O=C(O)c1ccc(COCc2ccc(C(=O)O)o2)o1	-13
COc1ccc2c(c1)C(CCNC(=O)Cc1c(C)[nH]c3c(C)ccc(C)c13)C(=O)N2 (stereo unspecified)	-6
CCCCN(C)C(=O)Cn1c(=O)c(S(=O)(=O)c2ccccc2)cc2cc(C)ccc21	-17
